Compound activity deposited in PubChem by National Center for Advancing Translational Sciences (NCATS).
RE007 growth inh: less growth of the S. pombe RE007 Vpr strain. S. pombe RE007 Vpr strain, BacTiter-Glo ATP luminescence, 24 h; control for the full effect not named in the record. 0.21% of 360,000 active. Potency, µM (doses to about 92.2 µM), for the others: at the highest dose activity change, negative = less growth. AID 651644; active = well fitted falling curve with a large enough effect; inconclusive = small, poorly fitted or top-dose-only effect; inactive = no such curve, though single readings can be large or run the other way;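 further: on the % scale 0 is the no-effect control and ±100 the full control effect; nearly all actives have a fitted effect of over 50% in size; the assay follows cell death caused by Vpr and the record does not say whether a fall means rescue or toxicity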
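Fission yeast strain RE007, carrying one chromosomally integrated HIV-1 vpr copy, was seeded at OD 0.01 in PMG+AL medium with 23 nL pinned compound. After 24 h at 30 °C and 99% humidity, viability was read by BacTiter-Glo luminescence.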
Cruzain noTriton: inhibitors of Trypanosoma cruzi cruzain without detergent; P25779; purified cruzain, Z-FR-AMC fluorescence, no detergent; 2.3% of 200,000 active; Potency, µM, for inactives: max response, negative = inhibition, actives largely listed as inhibitors;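 further: plate controls were enzyme without inhibitor for no effect and buffer without enzyme for full effect; nearly all actives have a fitted effect of over 40% in size; top concentration of the series not given in the record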
Target sequence (P25779 123-467 limits assumed): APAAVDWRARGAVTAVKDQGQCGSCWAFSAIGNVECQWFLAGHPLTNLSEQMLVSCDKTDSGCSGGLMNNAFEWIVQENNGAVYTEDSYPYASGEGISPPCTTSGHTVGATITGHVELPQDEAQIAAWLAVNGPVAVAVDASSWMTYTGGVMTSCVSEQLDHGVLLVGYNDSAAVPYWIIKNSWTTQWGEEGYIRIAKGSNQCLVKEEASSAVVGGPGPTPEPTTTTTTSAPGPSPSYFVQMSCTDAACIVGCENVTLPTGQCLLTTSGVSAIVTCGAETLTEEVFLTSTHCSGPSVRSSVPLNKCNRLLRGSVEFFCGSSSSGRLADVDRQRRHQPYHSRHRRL
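Purified cruzain at 1.5 nM, pre-incubated 15 min with compound at room temperature in 100 mM sodium acetate pH 5.5, 5 mM DTT, 0.00005% Triton X-100. Reaction started with 2 uM Z-FR-AMC; AMC fluorescence increase over 60 s gives rate.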
Cruzain Triton: inhibitors of Trypanosoma cruzi cruzain with detergent; P25779; purified cruzain, Z-FR-AMC fluorescence, 0.01% Triton; Potency, µM, for inactives: max response, negative = inhibition, hits mostly inhibitors; AID 1478; 0.43% of 200,000 active;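 further: plate controls were neutral wells for no effect and buffer without enzyme for full effect; nearly all actives have a fitted effect of over 40% in size; top concentration of the series not given in the record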
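Compounds were screened in titration against cruzain (1.5 nM) with 0.01% Triton X-100 to counter colloidal aggregation. Activity was the AMC fluorescence increase over 60 s after adding 2 uM Z-FR-AMC at pH 5.5.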
MARV entry inh: blocks Marburg virus binding to or entry into cells | Marburg virus pseudotyped entry inhibition, cell reporter; control for the full effect not named in the record; about a third of the inactives were read at about 46 µM | Potency, µM (doses to about 37.8 µM), without a hit: at the top dose activity change, negative = inhibition, actives largely listed as inhibitors | 1.8% of 300,000 active | AID 540276; active = well fitted inhibition curve with a large enough effect; inconclusive = small, poorly fitted or top-dose-only effect, or effect the other way; inactive = flat fitted curve, though single readings scatter; tested in HEK293 cells; about a fifth of its hits are not listed in these tables; further: on the % scale 0 is the no-effect control and ±100 the full control effect; luciferase read-out
Lassa entry inh: inhibitors of Lassa virus binding or cell entry | Lassa virus pseudotype entry inhibition, cell reporter; control for the full effect not named in the record | Potency, µM (doses to about 37.9 µM), for the others: at the highest dose activity change, negative = inhibition, most hits filed as inhibitors | 1.2% of 300,000 active; active means well fitted inhibition curve with a large enough effect; inconclusive means small, poorly fitted or top-dose-only effect, or effect the other way; inactive means flat fitted curve, though single readings scatter; tested in HEK293 cells; further: on the % scale 0 is the no-effect control and ±100 the full control effect; nearly all actives have a fitted effect of over 50% in size; luciferase read-out
SARS PLpro yeast: blocks SARS-CoV papain-like protease in a yeast assay. Potency, µM (highest dose often 32.9 µM), for the others: top-dose activity, positive = growth rescue. AID 485353. 0.19% of 330,000 active. S. cerevisiae expressing SARS-CoV PLpro, growth rescue; control for the full effect not named in the record; active means well fitted rising curve with a large enough effect; inconclusive means small, poorly fitted or top-dose-only effect; inactive means no such curve, though single readings can be large or run the other way; further: 0% is about no effect; nearly all actives have a fitted effect of over 55% in size; growth read by luminescence after 48 h
NS1 function inh: inhibitors of influenza NS1 protein function; S. cerevisiae slowed by influenza A NS1, growth recovery by OD600; 0.4% of 270,000 active; Potency, µM (top dose mostly 46.1 µM), without a hit: top-dose activity, positive = more growth; active means well fitted rising curve with a large enough effect; inconclusive means small, poorly fitted or top-dose-only effect; inactive means no such curve, though single readings can be large or run the other way; further: nearly all actives have a fitted effect of over 50% in size
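OD600 was taken as the measure of yeast growth restored by compound in an NS1-expressing S. cerevisiae strain. Cells had been washed out of glucose medium and diluted 1:100 into galactose -URA medium, pH 6.0.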
StopGo reporter: lowers the luciferase signal of an FMDV 2A StopGo reporter | human cells with a luciferase reporter of 2A StopGo recoding; control for the full effect not named in the record | Potency, µM (doses to about 57.9 µM), without a hit: at the highest dose signal change, negative = less light | 1.2% of 410,000 active | AID 1159524; active = well fitted falling curve with a large enough effect; inconclusive = small, poorly fitted or top-dose-only effect; inactive = no such curve, though single readings can be large or run the other way; tested in HEK293T cells; further: on the % scale 0 is the no-effect control and ±100 the full control effect; nearly all actives have a fitted effect of over 45% in size; luciferase light after 4 h
The depositor's hits bear a star; ? = inconclusive; nt = not tested or not shown; & = joins results of further samples; [ ] = remark or other dose. Unless noted, the call rests on the fitted dose curve; in most records, active means well fitted curve in the direction sought with a large enough effect; inconclusive means small, poorly fitted or top-dose-only effect, or another doubt; inactive means no such curve, though single readings can be large; an effect the other way counts as inactive or inconclusive. Potency means the concentration at half of the fitted maximal effect. Rows were taken by chance; 4.7% or so of the library scored in one or more.

Sequence of screens: RE007 growth inh, MARV entry inh, NS1 function inh, Cruzain Triton, SARS PLpro yeast, StopGo reporter, Lassa entry inh, Cruzain noTriton
- O=C(CNS(=O)(=O)c1ccc(F)cc1)N1CCN(c2ccccc2)CC1
 : -6%, 6%, 2%, 9.6%, 4%, 0%, -1%, 6%
- Cc1ccccc1NC(=O)c1c2c(nc3ccccc13)CCC2
 : -12%, 10%[46.1 µM], 5%, nt, -4%, -15%, 15%, nt
- CCOc1ccc(-n2c(SCC(=O)NCc3ccco3)nc3c([nH]c4ccccc43)c2=O)cc1
 : 5%, -29%, 9%, -9.0%, nt, ?, ?, -7%
- CCOC(=O)C1(Cc2ccccc2)CCCN(C(=O)c2ccc(-n3ccnc3)cc2)C1 (stereo unspecified)
 : -22%, 9%, -7%, nt, 18%, 5%, 0%, nt
- N#Cc1cccc(S(=O)(=O)N2CCN(c3ccnc4cc(Cl)ccc34)CC2)c1
 : 0%, nt, -24%, nt, -4%, ?, nt, nt
- CC(=O)Nc1ccc(C(=O)N2CC(=O)NC(=O)C2)cc1
 : 1%, 0%[14.2 µM], 4%, nt, 0%, 4%, -2%, nt
- COC(=O)c1ccccc1NC(=O)CN1CCC(NC(=O)c2ccc(C)cc2)CC1
 : -2%, -3%, -11%, 5.1%, 8%, 8%, -14%, 8%
- CCOc1ccc(N2CC(C(=O)Nc3cc(C)on3)CC2=O)cc1 (stereo unspecified)
 : 9%, 27%, -3%, 3.2%, 20%, -3%, 7%, -6%
- Cc1csc(NC(=O)CSc2nnc(CCNC(=O)c3cccs3)n2C)n1
 : 9%, -3%, 0%, 0.1%, -1%, 13%, -3%, -2%
- COc1ccc(-c2nc(CS(=O)CC(=O)NC3CCCCC3C)c(C)o2)cc1OC (stereo unspecified)
 : -8%, nt, 11%, nt, -5%, -7%, nt, nt
- CC(C)(C)NC(=O)Nc1ccc(F)c(Cl)c1
 : -11%, 5%[46.1 µM], 0%, nt, 0%, -3%, 10%, nt
- Cc1noc(C)c1CSc1nnc2scc(-c3ccccc3)n12
 : -13%, 18%, -2%, 0.2%, 1%, -16%, 3%, 7%
- CCc1ccc(OCC(=O)Nc2ccc(S(=O)(=O)Nc3onc(C)c3C)cc2)cc1
 : nt, nt, nt, -8.8%, nt, -11%, 2%[46.1 µM], 16%
- NC(=O)c1c(NC(=O)Cn2nc(C(=O)O)c3ccccc3c2=O)sc2c1CCC2
 : -6%, nt, 4%, nt, -1%, -22%, nt, nt
- Fc1ccc(/C=N/NC2=Nc3cccc4cccc2c34)cc1
 : -10%, ?, 12%, -11%, 4%, -8%, ?, -10%
- CN(C)C(CNC(=O)Cc1ccc([N+](=O)[O-])cc1)c1ccccc1 (stereo unspecified)
 : 0%, -11%[46.1 µM], nt, nt, -5%, 21%, 8%, nt
- Cc1ccsc1/C=N\NC(=O)CC(=O)NCc1ccccc1
 : 1%, -2%[46.1 µM], nt, nt, 0%, 9%, -10%, nt
- CC(C)(C)c1ccc(C(=O)O)c(C(=O)c2ccccc2)c1
 : -6%, 7%[46.1 µM], -1%, nt, 0%, -9%, nt, nt
- COc1ccc(NC(=O)CSc2nnc(-c3ccc(OC)cc3)s2)cc1
 : nt, nt, nt, -1.9%, nt, 41%[activator], -14%[46.1 µM], 2%
- CC1CC(C)CN(C(=O)CCC(=O)Nc2nnc(C(C)C)s2)C1 (stereo unspecified)
 : 5%, -2%[46.1 µM], 10%, nt, 4%, -13%, -18%[46.1 µM], nt
- Cn1c(SCC(=O)N2CCCc3ccccc32)nnc1-c1ccccc1
 : 8%, -2%, 6%, 0.9%, 9%, nt, 0%, 1%
- O=C(Nc1cc2c(ccc3ccccc32)oc1=O)C1CCCCC1
 : -2%, 20%, 0%, 6.3%, 4%, 11%, -4%, 2%
- CCn1c(C(=O)NC2CCC(C)CC2)cc2sccc21 (stereo unspecified)
 : 2%, nt, 3%, nt, -3%, 32%[activator], nt, nt
- Cc1cc(N)n(C2CCN(C)CC2)n1
 : 6%, nt, -1%, -0.6%, 0%, 12%, -17%, 2%
- CC1CCN(C(=O)CSc2nc3[nH]ncc3c(=O)[nH]2)CC1
 : 0%, 23%, 11%, 3.4%, 5%, 5%, -1%, 10%
- Cc1ccc(S(=O)(=O)N(C)c2ccc(OC(=O)CN3C(=O)NC4(CCCC4)C3=O)cc2)cc1C
 : 6%, 13%, nt, nt, 11%, -14%, -19%, nt
- COc1ccc(C(=O)NC2(C(F)(F)F)N=C3SCCN3C2=O)cc1 (stereo unspecified)
 : 2%, 5%, -11%, 4.9%, -1%, 24%, 4%, 4%
- Cc1ccc2c(c1)NC(=O)C(CC(=O)Nc1ccc(CN3CCC(C)CC3)cc1)O2 (stereo unspecified)
 : -3%, -1%, -3%, 1.2%, 2%, -5%, nt, -3%
- CCOC(=O)Nc1ccc2c(c1)N(C(=O)CCCl)c1ccccc1[S@]2=O
 : 2%, nt, -8%, nt, -2%, ?, nt, nt
- Cc1ccc(COc2coc(CO)cc2=O)cc1
 : -6%, 23%, -1%, 7.4%, -1%, 76%[activator], ?, -17%
- COCCN(C(=O)C(F)(F)F)C(C(=O)NC1CCCCC1)c1ccco1 (stereo unspecified)
 : 5%, ?, 5%, 5.6%, 8%, -5%, -4%, -6%
- Cc1cc(Br)ccc1NC(=O)C1CCN(S(=O)(=O)c2cnc[nH]2)CC1
 : 16%, nt, 5%, nt, -5%, 14%, nt, nt
- COc1cc(OC)cc(-c2n[nH]c(=S)n2-c2ccc3c(c2)OCCO3)c1
 : 1%, 13%[46.1 µM], 2%, nt, 0%, 5%, -1%, nt
- CC1CCN(C(=O)Cn2nnc(-c3ccc(C(C)C)cc3)n2)CC1
 : -22%, nt, 5%, nt, 3%, 13%, nt, nt
- C[n+]1ccn(CC(=O)c2ccc(Cl)cc2)c1
 : -1%, -26%, -1%, -2.9%, -8%, -14%, -1%, 1%
- COc1cc(Cl)ccc1OCc1cc(C(=O)NCCCN2CCCC2=O)no1
 : 7%, 23%[46.1 µM], 2%, nt, 1%, 3%, 11%[46.1 µM], nt
- CC(O)CN1CCN(C(=O)CN2C(=O)NC(c3ccccc3)(c3ccccc3)C2=O)CC1 (stereo unspecified)
 : -13%, nt, -5%, nt, 1%, -9%, nt, nt
- CCN(CC)S(=O)(=O)c1cc(NC(=O)c2ccc(Br)s2)ccc1C
 : 12%, ?, 12%, nt, 1%, ?, ?, nt
- CC(C)CC(=O)NC(=S)NCc1ccccc1
 : 1%, -3%, ?, -8.0%, -1%, 29%, -3%, 5%
- O=C1C(Nc2ccccc2)=CC(c2ccc(Br)cc2)N1c1ccccc1 (stereo unspecified)
 : nt, 2%[46.1 µM], nt, -11%, nt, -1%, ?, -12%
- CC(C)C(=O)NC(=S)Nc1ccc(S(=O)(=O)NC(C)(C)C)cc1
 : -2%, ?, 3%, -4.9%, -6%, -7%, -12%, -2%
- CCCC12CN3CC(C)(CN(C1)C3c1ccccc1Cl)C2=O (stereo unspecified)
 : nt, 9%[46.1 µM], nt, 0.0%, nt, ?, 24%[46.1 µM], -7%
- CCOc1ccc(N(CC(=O)NCCSc2ccccn2)S(=O)(=O)c2ccc(Cl)cc2)cc1
 : 21%, -2%[46.1 µM], 9%, nt, 4%, -10%, ?, nt
- COc1cc2ccc(=O)oc2c(O)c1OCC=C(C)C
 : 9%, 11%&11%&11%, -5%, 0.2%&-1.3%, 1%, nt, 22%, -2%&1%
- O=C(NCc1cccnc1)c1ccc(NS(=O)(=O)c2ccc(F)cc2)cc1
 : 0%, -16%[46.1 µM], -11%, nt, -5%, -14%, 28%[46.1 µM], nt
- COc1cc(C(=O)Nc2ccc3c(c2)Cc2cc(NC(=O)c4cc(OC)c(OC)c(OC)c4)ccc2-3)cc(OC)c1OC
 : 6%, 15%, 9%, -2.4%, 10%, -13%, ?, 8%
- CNCC[C@@H](Oc1ccccc1C)c1ccccc1
 : -17%[18.4 µM], nt, nt, -5.7%, nt, -18%&1%, nt, 5%
- COc1cccc(N(C(=O)C2CSC(=O)C2)C(C(=O)NC(C)(C)C)c2ccncc2)c1 (stereo unspecified)
 : 3%, nt, -3%, nt, 1%, -4%, nt, nt
- COc1ccc(C)cc1NC(=O)CN(C)S(=O)(=O)c1cccs1
 : -5%, 0%, -3%, -5.0%, 2%, 0%, 2%, 0%
- N#Cc1ccc(NC(=O)N2CCC(c3nc4c(nnn4Cc4cccc(Cl)c4)c(=O)[nH]3)CC2)cc1
 : 19%, -4%&-5%, 3%, -5.0%, 1%, -16%, -3%, 18%

Further compounds.
Sequence of screens: RE007 growth inh, MARV entry inh, NS1 function inh, Cruzain Triton, SARS PLpro yeast, StopGo reporter, Lassa entry inh, Cruzain noTriton
- O=C(Nc1cccc(F)c1)c1cc(S(=O)(=O)NCCC2=CCCCC2)ccc1F
 : 20%, ?, -8%, -9.1%, 4%, -2%, -13%, -1%
- CC(C)=NNc1nc2c(c(=O)[nH]c(=O)n2C)n1CCc1ccccc1
 : -4%, 4%, 4%, nt, 0%, -23%, ?, nt
- Cc1cnc(NC(=O)c2cncc(Br)c2)s1
 : 1%, ?, nt, nt, 2%, -26%, ?, nt
- O=C1N(CN2CCOCC2)c2ccccc2C12OCC(CCl)O2 (stereo unspecified)
 : 12%, 2%, -1%, nt, 0%, -17%, nt, nt
- CCCc1ccc(-c2cc(N)n[nH]2)cc1
 : -9%, -14%, 8%, -3.7%, -6%, 10%, 3%, ?
- COc1cccc(-n2c(CN3CCN(Cc4ccccc4)CC3)nc3ccc([N+](=O)[O-])cc3c2=O)c1
 : nt, ?, 3%, -5.9%, 11%, nt, -13%, -5%
